ClpP mod: qHTS Assay for Activators of ClpP. ATP-dependent Clp protease proteolytic subunit (Bacillus subtilis (strain 168)), P80244. purified B. subtilis ClpP, FRET peptide cleavage, 20 min. Potency, µM (top dose mostly 57.5 µM), inactives show top-dose activity change, negative = active. hit rate 1.9% among 340,000. AID 651965, 2013; active = well fitted falling curve with a large enough effect; inconclusive = small, poorly fitted or top-dose-only effect; inactive = no such curve, though single readings can be large or run the other way; note: potency is the fitted concentration of half-maximal effect; the source files actives as falling curves though it sought activators and does not explain the sign; nearly all actives have a fitted effect of over 65% in size; many hits overshoot -100%
Target sequence (P80244 whole entry, looked up): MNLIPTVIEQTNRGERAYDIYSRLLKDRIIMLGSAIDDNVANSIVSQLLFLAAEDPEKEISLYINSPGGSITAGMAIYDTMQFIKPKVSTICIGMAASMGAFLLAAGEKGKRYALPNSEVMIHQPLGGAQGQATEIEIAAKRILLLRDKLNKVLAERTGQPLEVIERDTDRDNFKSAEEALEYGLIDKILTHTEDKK
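Buffer: 100 mM Tris/HCl pH8, 100 mM KCl, 0.05% low protease BSA, 2.5% glycerol, 0.01% Tween-20. ClpP 10 microg/mL final; 20 min RT; delta FRET normalized to ADEP and DMSO controls.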
gsp ag: gsp mutant agonism; gsp mutant cells, cAMP HTRF, 30 min; control for the full effect not named in the record; Potency, µM (titrated, usually from 76.9 µM), for the others: at the top dose activation (cAMP increase), hits mostly activators; hit rate 0.13% among 340,000; AID 624287; active = well fitted activation curve with a large enough effect; inconclusive = small, poorly fitted or top-dose-only effect, or another doubt; inactive = no such curve, though single readings can be large or run the other way; cell line not stated here;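 note: phosphodiesterase inhibitor Ro 20-1724 added with compounds to block cAMP breakdown; potency is the fitted concentration of half-maximal effect; nearly all actives have a fitted effect of over 60% in size; about a fifth of the inactives were tested at one dose only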
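Cells in DMEM/10% FBS with G418 were pretreated with compounds in DMSO plus […] (300 uM stock) for 30 min at 37C. cAMP was measured by HTRF (cAMP-d2 plus anti-cAMP antibody-K) after 30 min at room temperature.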
Menin-MLL FL inh: inhibitors of human menin-MLL interaction, wild-type MLL peptide; Fluorescence polarization, fluorescein-MLL peptide displacement from menin; AID 1766; 290,000 tested, under 10 active; FP activity change, % at 61.4 µM; inconclusive = falling polarisation curve, or a change in total fluorescence; inactive = total fluorescence flat and polarisation flat or rising; no compound was filed as active; the % refers to the polarisation; negative = inhibition;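 note: % of control where 0% means no effect; inhibitors lower the polarisation; unlabelled MLL peptide was the positive control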
gsp antagonist: antagonists of gsp mutant (McCune-Albright syndrome) | gsp-mutant cells, cAMP HTRF, 30 min; control for the full effect not named in the record | Potency, µM (series often up to 76.9 µM), without a hit: top-dose activity change, negative = inhibition, most hits filed as inhibitors | hit rate 0.4% among 340,000; active = falling curve of any shape with a large fitted effect; inconclusive = falling curve, mostly with a smaller effect; inactive = flat or rising curve; cell line not stated here;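 note: intracellular cAMP measured with PDE inhibitor Ro 20-1724 present during compound exposure; potency is the fitted concentration of half-maximal effect; % is set by controls: 0 for no effect and ±100 for the full control effect; nearly all actives have a fitted effect of over 65% in size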
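Measurement of cellular cAMP by homogeneous time-resolved fluorescence following a 30 min compound exposure at 37C. The PDE inhibitor […] was present throughout; the assay buffer was DPBS with 0.05% BSA and 0.005% Tween 20.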
TRPML1 ag: agonists of human TRPML1 channel | TRPML1-expressing cells, Ca2+ dye fluorescence, FDSS; host cell line not named in the record; reference of the full effect not given here | hit rate 0.12% among 410,000 | activation, % (concentration not given with the values); in the data active = activation above about 50%; inconclusive = about 30% to 50%; inactive = below about 30%; note: 0% is about no effect; the text of the record puts the active cut at 80%
Target sequence (Q9GZU1 whole entry, looked up): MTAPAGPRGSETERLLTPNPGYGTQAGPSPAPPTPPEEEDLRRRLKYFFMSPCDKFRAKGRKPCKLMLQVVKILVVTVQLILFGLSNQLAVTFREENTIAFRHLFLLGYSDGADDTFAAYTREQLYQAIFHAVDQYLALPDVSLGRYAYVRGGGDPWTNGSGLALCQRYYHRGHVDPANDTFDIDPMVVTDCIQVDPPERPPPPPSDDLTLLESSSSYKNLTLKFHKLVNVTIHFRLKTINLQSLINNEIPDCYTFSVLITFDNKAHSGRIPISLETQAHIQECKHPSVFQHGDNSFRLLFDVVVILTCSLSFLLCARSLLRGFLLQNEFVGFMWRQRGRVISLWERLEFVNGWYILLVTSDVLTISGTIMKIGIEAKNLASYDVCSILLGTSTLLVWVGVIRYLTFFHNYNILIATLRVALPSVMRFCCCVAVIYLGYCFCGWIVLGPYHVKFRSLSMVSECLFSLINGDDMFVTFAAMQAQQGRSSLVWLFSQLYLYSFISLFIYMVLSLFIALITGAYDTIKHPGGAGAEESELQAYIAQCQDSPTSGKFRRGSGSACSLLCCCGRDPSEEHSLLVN
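Kinetic FDSS Ca2+ read in Tet-induced TRPML1-DL cells (ABD Ca8 dye plus quencher, 45-90 min RT loading): baseline, then compound, then 110 s agonist window; EC80 agonist 54-4 at 4uM final added afterwards for a 110 s antagonist window.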
TRPML1 inh: human mucolipin-1 channel inhibition. Q9GZU1. TRPML1-inducible cells, Ca2+ dye fluorescence, FDSS; active compounds read low; inhibition of EC80 agonist-evoked calcium signal. activity change, negative = inhibition, % (concentration not given with the values). hit rate 0.02% among 390,000; in the data active means activity change below about -50%; inconclusive means about -30% to -50%; inactive means above about -30%;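 note: stimulus is agonist 54-4 at its EC80 concentration; % is set by controls: 0 for no effect and ±100 for the full control effect; the text of the record puts the active cut at -80%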
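Calcium fluorescence in TRPML1-DL cells induced overnight with Tet: a 110 s read after compound pin addition, then a 110 s antagonist read after challenge with 54-4 at 4 uM final (EC80).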
* = called active by the depositor; ? = inconclusive; · = not tested or not shown; & = joins results of further samples; [ ] = another dose, or the depositor's remark.

SMILES	ClpP mod	gsp ag	Menin-MLL FL inh	gsp antagonist	TRPML1 ag	TRPML1 inh
C=CCOc1ccc(C2/C(=C(/O)c3ccc4c(c3)CC(C)O4)C(=O)C(=O)N2CCCN2CCOCC2)cc1 (configuration not stated)	-2.2%	8%[15.4 µM]	3.2	0%	0.0	45
COc1cccc(-n2c(SCC#N)nnc2-c2cnccn2)c1	-3.6%	-27%	-0.4	9%	0.6	-1
Cc1cc(Br)ccc1NC(=O)C1CCN(S(=O)(=O)c2cnc[nH]2)CC1	-0.2%	14%	-5.8	2%	-0.5	10
CCOC(=O)c1cc(=O)c2ccc(OCc3ccccc3)cc2o1	-0.5%	-4%[15.4 µM]	-2.0	1%	-1.3	-4
CCC(=O)N1c2ccc(S(=O)(=O)N3CCCC3)cc2CC1C (configuration not stated)	0.2%	-13%	·	-9%	2.0	-13
CN(Cc1ccccc1)C(=O)CCCn1c(=O)c2cccn2c2cccnc21	4.3%	7%	·	16%	-0.9	-3
S=c1nc(NCCc2ccccc2Cl)c2ccccc2[nH]1	-0.8%	18%[15.4 µM]	0.0	3%	0.3	-7
COc1cc(-c2ccccc2)nc(N)n1	-4.3%	-3%	1.4	8%	0.0	-15
CC(C)Cc1nc2oc3c(Cl)ncnc3c2c2c1CCCC2	·	-3%[15.4 µM]	-1.2	-13%	1.3	-10
CC(C)C(NC(=O)C(NC(=O)C1O[C@@H]2OC(C)(C)O[C@@H]2[C@H]2OC(C)(C)O[C@@H]12)C(C)C)C(=O)O (some centres not stated)	-4.4%	-71%	-1.0	6%	1.6	5
CCN(C(=O)COC(=O)c1cc(=O)c2ccccc2o1)c1c(N)n(Cc2ccccc2)c(=O)[nH]c1=O	-17%	-16%	·	16%	-0.1	-3
COC(=O)c1cc2occc2n1Cc1ccc(Cl)cc1	-5.8%	3%	0.5	?	-0.3	2
Cn1c(=O)oc2cc(S(=O)(=O)NCCC(=O)Nc3ccc(F)c(Cl)c3)ccc21	1.1%	·	·	·	-0.9	-8
N#CCCN1CCN(Cn2c3ccccc3c3ccccc32)CC1	-8.4%	-10%	-2.0	7%	-0.9	-10
O=C(NCc1ccco1)c1nc2nc(-c3cccs3)cc(C(F)(F)F)n2n1	?	3%	0.2	-1%	3.1	5
Cc1ccc2cc(CCNC(=O)c3ccc(C)c([N+](=O)[O-])c3)c(=O)[nH]c2c1	-8.8%	-31%[inhibitor]	-1.4	-8%	1.1	-8
Cc1ccc(-c2nnc(-c3cccs3)o2)cc1	-0.9%	6%[15.4 µM]	1.2	-19%	-1.1	-9
COc1ccccc1C(=O)NC(=O)COC(=O)c1cccc(OC(F)F)c1	-16%	-5%	·	1%	1.9	18
COc1ccccc1-c1n[nH]c(=S)o1	?	?	-1.6	24%	-0.1	-8
NS(=O)(=O)c1ccc(CNC(=O)c2ccc(NS(=O)(=O)c3cccs3)cc2)cc1	-0.5%	-4%[15.4 µM]	·	8%	1.6	-17
O=c1[nH]n(-c2ccc(Cl)cc2)c(=O)c(Cl)c1Cl	0.9%	21%	0.2	-34%	-0.1	9
O=C(O)C1CCN(C(=O)COc2ccc(Br)cc2)CC1	·	-97%[inhibitor]	0.0	11%	0.5	-10
CCc1nc2nc(C)c(NS(=O)(=O)c3ccc(Cl)cc3)c(=O)n2[nH]1	·	-24%	-6.1	-10%	2.0	-5
O=C(NCCN1CCOCC1)C1(C(F)(F)F)C/C(=C\Cc2ccccc2)CCCO1 (configuration not stated)	-0.9%	·	1.8	4%	2.5&0.4	-10&-14
Cc1cccc(NC(=O)COC(=O)CCc2c[nH]c3ccccc23)c1C	-4.5%	-16%	·	5%	0.8	18
C=CCNC(=O)CN1CCN(Cc2ccc3c(c2)OCO3)CC1	-1.9%	11%	1.6	10%	0.3	-2
C=CCn1c(SCC(=O)Nc2cc(NC(C)=O)ccc2OC)nnc1-c1cccnc1	-5.4%	?	2.8	11%	-0.1	-4
CCC(C(=O)OCC(=O)NCc1ccc2c(c1)OCO2)c1ccccc1 (configuration not stated)	-1.0%	-17%	·	11%	2.7	-7
CCN(CC)S(=O)(=O)c1cc(F)ccc1OC	1.1%	-19%	-0.6	-3%	-0.5	-2
COc1ccc(C(=O)CSc2nnc(C3CC3)n2N)cc1	0.9%	-19%	-0.1	2%	0.8	-1
CCN1C(=O)c2ccccc2S(=O)(=O)c2ccc(C(=O)NCC(OC)OC)cc21	-2.2%	?	2.7	-5%	0.7	-10
O=C(Cc1cccs1)NC1CC(=O)N(c2ccc(F)cc2)C1 (configuration not stated)	-1.3%	·	·	·	-0.3	-8
Cc1cn2nc(N)c3ccccc3c2n1	28µM*	0%	-1.4	14%	-0.5	1
CN1CCN(C2=C(Cl)C(=O)N(c3ccc(Cl)c(Cl)c3)C2=O)CC1	-0.6%	16%	4.1	8%	1.1	-2
Cc1ccc(-n2c(=O)c3sccc3n(CC(=O)NC3CCCC3)c2=O)cc1	·	0%	0.5	-5%	0.5	-10
CC(=O)c1ccc(Nc2cc(C)nc3ncnn23)cc1	-1.0%	4%[15.4 µM]	1.0	0%	1.0	15
O=C(O)CC(SCC(=O)Nc1ccccc1)C(=O)O (configuration not stated)	·	-9%	-0.3	8%	0.0	7
COc1cccc(-c2csc(N3CCN(C(=S)Nc4cccc(C)c4)CC3)n2)c1	-1.6%	-50%[inhibitor]	6.2	-8%	3.6	5
Cc1nc(-c2cc(C#N)c(=O)[nH]c2C)cs1	-13%	3%[15.4 µM]	3.7	-11%	-0.6	-1
CCOc1ccc(CNC(=O)C(C)n2nc(C)c3c(C)n(-c4ccccc4)nc3c2=O)cc1 (configuration not stated)	-0.1%	4%	?	-28%	-1.5	-3

By substructure: the entries above with a cyano group (three)
SMILES	ClpP mod	gsp ag	Menin-MLL FL inh	gsp antagonist	TRPML1 ag	TRPML1 inh
COc1cccc(-n2c(SCC#N)nnc2-c2cnccn2)c1	-3.6%	-27%	-0.4	9%	0.6	-1
N#CCCN1CCN(Cn2c3ccccc3c3ccccc32)CC1	-8.4%	-10%	-2.0	7%	-0.9	-10
Cc1nc(-c2cc(C#N)c(=O)[nH]c2C)cs1	-13%	3%[15.4 µM]	3.7	-11%	-0.6	-1

The listing continues:
SMILES	ClpP mod	gsp ag	Menin-MLL FL inh	gsp antagonist	TRPML1 ag	TRPML1 inh
N#CCSc1nc2ccccc2c(=O)n1CCC(=O)NC1CCCCC1	0.1%	9%	-1.5	9%	-0.7	-7
CS(=O)(=O)N1CCC(C(=O)NCc2ccc3c(c2)OCO3)CC1	1.6%	0%[15.4 µM]	-2.0	-6%	0.4	10
Cn1c(N)c(C(=O)NCc2ccccc2Cl)sc1=S	-0.4%	-51%[inhibitor]	3.4	15%	0.4	-11
COc1cccc(-c2nc(CS(=O)(=O)CC(=O)Nc3ccccc3Cl)c(C)o2)c1	-2.3%	18%	1.8	-23%	-0.3	-8
CCn1cc(/C=C/c2cc[n+](C)cc2)c2ccccc21	2.7%	-44%	?	?	13	-23
COCCCNC(=O)c1ccc2c(c1)N=C(C)c1c(C)ccc(C)c1S2	0.6%	·	·	·	1.1	-1
O=C(NC(NCC1CCCO1)C(Cl)(Cl)Cl)c1cccc2ccccc12 (configuration not stated)	1.9%	-4%	2.2	-10%	0.9	5
COc1ccc(N2CC(C(=O)OCC(=O)Nc3ccccc3C)CC2=O)cc1 (configuration not stated)	·	-28%	0.6	10%	-0.1	40
Cc1ccccc1CNC(=O)C(=O)Nc1nccs1	·	16%	-0.5	12%	-0.3	4
O=C(O)C1CC=CCC1C(=O)NC1CCCCC1 (configuration not stated)	·	?	0.9	14%	1.0	35
CN(C)c1ccc(NC(=O)COC(=O)CNC(=O)c2cccs2)cc1	1.9%	16%	·	-18%	-0.7	0
Cc1nnc2sc(SCc3ccc(Cl)cc3)nn2c1=O	-2.7%	?	-6.5	0%	1.3	15
NC(=O)COC(=O)c1ccc(Cl)c(S(=O)(=O)N(Cc2ccccc2)c2ccc(Cl)cc2)c1	·	0%[15.4 µM]	7.1	-24%	1.9	12
O=C(C1CC1)N1CCc2cc(Br)cc(S(=O)(=O)NCCCN3CCCCC3)c21	-0.1%	-7%[15.4 µM]	-8.7	18%	-1.5	-10
CCOc1ccc(CCNC(=O)COC(=O)/C=C/c2ccco2)cc1OCC	-1.2%	-9%	·	3%	-0.3	-6
O=C(Nc1cccc(NC(=O)c2ccc3c(c2)OCO3)c1)c1ccccc1	·	16%[15.4 µM]	1.9	-17%	0.3	0
O=C(COc1cc(Cl)c(Cl)cc1Cl)NC(=O)NC1CCCC1	0.2%	-40%[inhibitor]	0.5	0%	0.1	-2
CCOC(=O)c1c(NC(=S)Nc2cccc(C)c2)sc2c1CC(C)(C)SC2	1.1%	1%	12	?	-0.4	15
CN(C)S(=O)(=O)c1cccc(NC(=O)COC(=O)c2cc3ccccc3oc2=O)c1	·	10%[15.4 µM]	1.0	-17%	-0.8	-15
CCc1sc(C(=O)NCCCn2ccnc2)cc1Br	0.1%	0%	-1.0	6%	0.6	15
CC(=O)N(Cc1ccc2c(c1)OCO2)C1CC(=O)N(CCc2ccccc2)C1=O (configuration not stated)	0.7%	-16%	0.7	-3%	0.1	9
C(=C/c1nccc2c1[nH]c1ccccc12)/c1ccc2c(c1)OCO2	4.3%&-1.3%	6%[15.4 µM]	?	-8%	1.9&2.0	-6
CCc1cccc(C)c1NC(=O)COC(=O)CNC(=O)c1cccs1	·	25%[15.4 µM]	·	3%	2.1	-12
CN1CCN(S(=O)(=O)c2ccc(NC(=O)c3ccc(F)cc3)cc2)CC1	-0.9%	-2%	3.6	21%	-0.3	4
C=CCOc1ccc(/C(O)=C2\C(=O)C(=O)N(CCCOC)C2c2ccc(O)c(OC)c2)cc1 (configuration not stated)	0.3%	?	2.9	-3%	-0.7	32
Cc1cnc(C(=O)Nc2cccc3cccnc23)cn1	-7.7%	2%	0.3	-7%	-0.8	22
COc1ccc(S(=O)(=O)Nc2nc3ccccc3nc2Nc2cccc(C(=O)O)c2)cc1	-29%	20%	0.7	3%	-0.7	-1
CC(NC(=O)/C=C/c1ccccc1[N+](=O)[O-])C1CC2CCC1C2 (configuration not stated)	·	-1%[15.4 µM]	1.2	-11%	0.2	13
CCN1C(=O)[C@H]2[C@@H](c3ccc(C)cc3)N3C(=O)N(c4ccccc4)C(=O)[C@@]3(Cc3ccccc3)[C@H]2C1=O	3.1%	·	0.7	1%	-0.8	-6
CC1=NN(C(=S)Nc2ccccc2)C(C)(C)C1	·	-2%[15.4 µM]	-4.7	11%	-0.3	-23
Nc1ccc2nc(SCc3ccccc3F)sc2c1	·	24%[15.4 µM]	-1.6	-3%	1.2	-1
